# Screens (PubChem BioAssay)
# KCNQ2 block – KCNQ2 potassium channel inhibitors, primary screen, cell-based, CHO-K1, FluxOR thallium flux, B-score (AID 2156); Potassium voltage-gated channel subfamily KQT member 2 (Rattus norvegicus), O88943; 20 min; hits give low values; only compounds with negative scores are shown here; some inactives read as strong as hits; B-score at 10 µM; 310,000 tested, 1.1% active;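 active means fluorescence ratio B-score at most minus 3 library SDs, with starting brightness B-score within 2 library SDs, cut at about -5.5 in these data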
# Target sequence (O88943 whole entry, looked up): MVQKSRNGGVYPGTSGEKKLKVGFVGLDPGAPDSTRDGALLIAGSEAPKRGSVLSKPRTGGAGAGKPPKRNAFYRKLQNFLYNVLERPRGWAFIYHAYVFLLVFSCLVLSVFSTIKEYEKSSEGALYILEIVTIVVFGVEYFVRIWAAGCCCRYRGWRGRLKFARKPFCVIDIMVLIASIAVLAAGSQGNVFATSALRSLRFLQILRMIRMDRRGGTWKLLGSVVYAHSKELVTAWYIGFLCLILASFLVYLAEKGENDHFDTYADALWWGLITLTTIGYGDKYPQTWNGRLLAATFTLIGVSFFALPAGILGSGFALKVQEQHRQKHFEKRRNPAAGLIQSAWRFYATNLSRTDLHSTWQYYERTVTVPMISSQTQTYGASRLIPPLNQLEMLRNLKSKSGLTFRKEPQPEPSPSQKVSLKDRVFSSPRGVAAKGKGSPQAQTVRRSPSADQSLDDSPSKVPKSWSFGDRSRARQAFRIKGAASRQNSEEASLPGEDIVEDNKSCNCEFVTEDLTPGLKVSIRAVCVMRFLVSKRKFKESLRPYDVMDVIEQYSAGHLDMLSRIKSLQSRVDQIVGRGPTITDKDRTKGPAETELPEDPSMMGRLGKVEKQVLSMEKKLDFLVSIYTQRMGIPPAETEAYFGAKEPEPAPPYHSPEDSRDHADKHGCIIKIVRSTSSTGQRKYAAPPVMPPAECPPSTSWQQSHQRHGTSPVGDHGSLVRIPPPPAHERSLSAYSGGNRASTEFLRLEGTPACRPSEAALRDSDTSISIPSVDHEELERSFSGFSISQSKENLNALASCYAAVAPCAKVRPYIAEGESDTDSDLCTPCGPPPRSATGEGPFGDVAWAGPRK
# KCNQ2 block baseline – also measured in KCNQ2 block; calls as there; B-score; measured here: initial fluorescence intensity artifact check;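 brightness before thallium and not channel activity; 0 = typical well and far values either way flag optical interference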
# * hit, by the source's call; i = inactive.
Structure	KCNQ2 block baseline	KCNQ2 block
Cc1ccc(C)c(OCC(=O)Nc2ccc(S(=O)(=O)Nc3ccccn3)cc2)c1C	-0.69	i
C=C(C)COc1ccc(-c2[nH]ncc2-c2ccccc2)c(O)c1	-1.8	i
CCc1ccccc1NC(=S)NCCSc1ccc(Cl)cc1	-1.9	i
CC(C)Cc1nnc(NC(=O)CCC(=O)Nc2ccccc2F)s1	-0.65	i
CCCC(=O)OCC(=O)NC1CCCc2ccccc21 (stereo unspecified)	2.5	i
CN(C)c1ccc(/C=N/N(Cc2ccccc2)c2ccccc2)cc1	-0.16	i
Clc1cccc(CSc2ncn(-c3ccccc3)n2)c1	0.2	i
O=C(O)COc1ccc(/C=N/NC(=O)c2cn(-c3ccccc3)nc2-c2ccccc2)cc1	-0.63	i
Cn1nccc1C(=O)Nc1cccc(C(F)(F)F)c1	-0.39	i
O=C(NNC1=NCCN1Cc1ccccc1)c1cccc(C(F)(F)F)c1	-2.3	i
CC(=O)N/C(=C\c1ccccc1)C(=O)OC(C)C(=O)N(C)c1ccccc1 (stereo unspecified)	2.5	i
COc1ccccc1C(=O)NC(=O)COC(=O)CCOc1ccccc1C	0.75	i
Cc1noc(C)c1S(=O)(=O)Nc1ccccc1OC(F)(F)F	0.77	i
Cc1ccc(NC(=O)C2CCCCC2)c(O)c1	2.2	i
Cc1ccc(S(=O)(=O)NCC(=O)OCC(=O)Nc2ccccc2OC(F)F)cc1	-1.6	i
CCN(CC)S(=O)(=O)c1cccc(-c2nnc(SCCOc3ccccc3)o2)c1	0.36	i
Cc1ccccc1OCC(=O)N/N=C1\CC(=O)CC(C)(C)C1	-0.62	i
Cc1ccc(S(=O)(=O)Nc2ccncc2)c(C)c1N(C)S(=O)(=O)c1ccc(F)cc1	5.9	i
O=C1OCC(c2ccccc2)=C1c1ccc(S(=O)(=O)N2CCOCC2)s1	-0.89	i
NC(=O)c1nsc(C(=O)N(Cc2ccco2)C(C(=O)NCC2CCCO2)c2ccc(O)cc2)c1N (stereo unspecified)	0.13	i
Cc1c(Cl)cccc1NC(=O)CCN1CCN(CCO)CC1	-0.7	i
Clc1ccc(CN(Cc2ccccc2)C(c2cccs2)c2nnnn2C2CCCC2)cc1 (stereo unspecified)	-0.04	i
O=C(/C=C/c1ccc(Cl)cc1)NCCN1CCOCC1	1.4	i
Clc1ccccc1Cc1noc(CN2CCSCC2)n1	0.51	i
Cc1ccc(NC(=O)CN2C(=O)NC3(CCCc4ccccc43)C2=O)cc1S(=O)(=O)N1CCOCC1 (stereo unspecified)	1.3	i
O=C(NCC(c1ccco1)N1CCc2ccccc2C1)c1cccc(Br)c1 (stereo unspecified)	0.15*	-7.9*
Cc1ccc(S(=O)(=O)NNC(=S)Nc2ccccc2)cc1	0.01	i
Cn1c(=O)[nH]c(=O)c2c1nc(NCc1ccco1)n2Cc1ccccc1Cl	0.32	i
Nc1ccc2oc(-c3ccccc3Cl)nc2c1	2.4	i
COc1ccc(NC(=O)C2C3C=CC4(O3)C2C(=O)N(CCN2CCCCC2C)C4C(=O)NC2CCCC(C)C2C)cc1 (stereo unspecified)	0.29	i

Structure	KCNQ2 block baseline	KCNQ2 block
COc1cccc(CSc2nnc(-c3ccncc3)n2C)c1	-0.13	i
CCSc1nnc(C)c(=O)n1COC(=O)c1ccc(S(=O)(=O)N2CCCC2)cc1	0.17	i
CCOC(=O)c1c(C)[nH]c(C)c1C(=O)COc1ccc(NC(=O)c2ccco2)cc1	-1.3	i
O=C(CN1CCN(Cc2ccccc2F)C1=O)NCCc1ccc(Cl)cc1	-0.88	i
COc1ccc(NC(=O)CC(C)CC(=O)NCc2ccccc2)c(OC)c1 (stereo unspecified)	0.81	i
CCCn1c(=S)[nH]c2cc(C(=O)N3CCc4ccccc43)ccc2c1=O	-0.17	i
CCC(C)C(NC(=O)c1ccccc1NC(=O)c1ccccc1)C(=O)N1CCOCC1 (stereo unspecified)	0.23	i
Cc1ccc(S(=O)(=O)N2CCN(c3ncnc4scc(-c5ccc(F)cc5)c34)CC2)cc1	0.26	i
CCOc1ccc(N2C(=O)CCC2=O)cc1	-0.05	i
CCC1CCCCN1CCCNC(=O)c1cc2c(Cl)nc3ccccc3c2s1 (stereo unspecified)	-0.32	i
O=C(NC1CC1)C1CCN(C2CCN(C(=O)c3ccc(C(F)(F)F)cc3)CC2)CC1	0.1	i
Cc1[nH]c(=S)[nH]c(=O)c1CCCO	2.7	i
COc1ccc(N=C2SC(C(=O)Nc3ccc(F)cc3)CC(=O)N2C)cc1 (stereo unspecified)	0.15	i
CN(C)CCC(=O)c1ccc(F)cc1	1.5	i
COc1ccc(S(=O)(=O)N2CCCCCC2)cc1C(=O)N(C)Cc1ccc(C)cc1	0.02	i
COc1ccc(N2CCN(C(=O)CCCC(=O)c3ccccc3)CC2)cc1	-1.1	i
CCOCCCn1c(SCC(=O)NC(C)C)nc2ccccc2c1=O	-0.48	i
CC(C)N1CCC(N2CCN(Cc3ccc(-c4ccccc4Cl)o3)CC2CCO)CC1 (stereo unspecified)	2.2	i
CSc1ccccc1C(=O)Nc1ccc(C)c(C)c1	0.41	i
c1ccc2c(c1)oc1c(N3CCN(Cc4ccc5c(c4)OCO5)CC3)ncnc12	-0.92	i
CCOC(=O)C1(CC2CC2)CCN(C(=O)c2cccnc2C)CC1	1.4*	-6.4*
COc1cccc(/C=C/c2nc(S(=O)(=O)c3ccccc3)c(N(C)C)o2)c1	-0.5	i
CCN(CC)S(=O)(=O)c1cccc(-c2nnc(SCCCC(=O)c3ccccc3)o2)c1	-1.1	i
CC(/C=N/NC(=O)c1cc(-c2ccc3ccccc3c2)n[nH]1)=C\c1ccco1	-1.1	i
COc1ccc(OC)c(NC(=O)c2cccc(C)c2[N+](=O)[O-])c1	0.03	i
COc1cccc(Nc2ccc(C(=O)O)cc2[N+](=O)[O-])c1	-0.48	i
Oc1ccccc1CN(Cc1ccco1)CC(O)COCc1ccc(Cl)cc1 (stereo unspecified)	-0.21*	-6.1*
CCOC(=O)C1C(=O)OC(C)(C)C1C(C)C(=O)c1ccc(OC)cc1 (stereo unspecified)	0.37	i
O=[N+]([O-])/C(=C\Nc1ccccc1)S(=O)(=O)c1ccccc1	-0.21	i
COc1ccc(C(=O)NCc2nnc(SCC(=O)NO)n2Cc2ccccc2)cc1	6.5	i

# Single values from the list:
# Result for CCOC(=O)C1C(=O)OC(C)(C)C1C(C)C(=O)c1ccc(OC)cc1 (stereo unspecified) in KCNQ2 block baseline: 0.37
# Result for Oc1ccccc1CN(Cc1ccco1)CC(O)COCc1ccc(Cl)cc1 (stereo unspecified) in KCNQ2 block baseline: -0.21*
# Result for CCSc1nnc(C)c(=O)n1COC(=O)c1ccc(S(=O)(=O)N2CCCC2)cc1 in KCNQ2 block baseline: 0.17
# Result for c1ccc2c(c1)oc1c(N3CCN(Cc4ccc5c(c4)OCO5)CC3)ncnc12 in KCNQ2 block baseline: -0.92
# Result for Cc1ccc(S(=O)(=O)N2CCN(c3ncnc4scc(-c5ccc(F)cc5)c34)CC2)cc1 in KCNQ2 block baseline: 0.26

# Next part
Structure	KCNQ2 block baseline	KCNQ2 block
O=C(Nc1nncs1)c1cc2c(s1)CCC2	1.7	i
O=C(NC(Cc1ccc(O)cc1)C(=O)O)/C(=C/c1ccccc1)NC(=O)c1ccccc1 (stereo unspecified)	-0.46	i
Cc1cc(NC(=O)COc2ccc3oc4ccccc4c3c2)no1	0.28	i
O=[N+]([O-])c1ccccc1OCCCCN1CCCCC1	1.4	i
CC(=O)c1cccc(NC(=O)C(=O)c2cn(CC(=O)N3CCCCC3)c3ccccc23)c1	-2.3	i
C/C(=N\NC(=O)COc1ccc(C(C)(C)C)cc1)c1ccc2c(c1)OCCO2	-2	i
CCOC(=O)c1[nH]ncc1CN1CCCC(C(=O)c2ccc(C(C)(C)C)cc2)C1 (stereo unspecified)	1.5	i
OCC1(Cc2ccccc2)CCN(Cc2cnc(-c3cccc4ccccc34)nc2)CC1	-1.3	i
COc1ccccc1CCC(=O)NCCCn1ccc2ccccc21	-1.6	i
CC(=O)Nc1cc(C(C)C)c(O)c(C(C)C)c1	-0.63	i
CC(C)CCNC(=O)c1ccc2c(c1)N(Cc1ccccc1)C(=O)CS2=O (stereo unspecified)	-0.54	i
O=C(NCCc1nc2ccccc2[nH]1)c1ccc([N+](=O)[O-])cc1	-0.18	i
O=C(CNC(=O)C(c1ccccc1)c1ccccc1)OCc1ccccc1	0.03	i
O=C1N[C@@H](Cc2ccccc2)C(=O)N2[C@H]1C[C@]1(Br)c3ccccc3N(S(=O)(=O)c3ccc(F)cc3)[C@H]21	-0.57	i
CN=C1S/C(=C\c2cc(C)n(-c3ccccc3F)c2C)C(=O)N1C	-0.72	i
COC(=O)CCCCCCCCCC[N+]1(C)CCCCC1	-0.18	i
Cc1cccc(/C(N)=N/OC(=O)c2ccc(Br)o2)c1	-0.26	i
COc1cccc(C(=O)NCCS(=O)(=O)NCc2cccnc2)c1	1.2	i
CC(C)c1nn2c(N)c(/C=C3\C=Nc4ccccc43)c(=O)nc2s1	0.45	i
O=C(NCC(c1ccco1)N1CCCCC1)c1cccc(S(=O)(=O)Nc2ccccc2Cl)c1 (stereo unspecified)	-0.01	i
CCOC(=O)c1ccccc1NC(=O)COC(=O)c1ccc(C)c(S(=O)(=O)N2CCOCC2)c1	-0.84	i
Cc1ccc2[nH]c(=O)c(CN(Cc3ccco3)C(=O)c3cccs3)cc2c1	3.9	i
O=C(CCSc1ccccc1)NCCSc1ccccn1	-0.33	i
CC(C(=O)NC1CCCC1)N(C(=O)CS(=O)CC(=O)Nc1ccc(F)cc1)c1ccc2c(c1)OCCO2 (stereo unspecified)	0.1	i
CCOC(=O)CNC(=O)N1CCCC(Cc2ccccc2)(C(=O)OCC)C1 (stereo unspecified)	-0.01	i
Cc1cccc(NC(=O)CSc2ccc(-c3ccco3)nn2)c1C	-0.4	i
COC(=O)C(NC(=O)c1ccco1)(Nc1nc(C)cs1)C(F)(F)F (stereo unspecified)	0.94	i
CN(CC(=O)Nc1cc(S(=O)(=O)N2CCOCC2)ccc1Cl)C1CCS(=O)(=O)C1 (stereo unspecified)	1.7	i
Cc1cc(C)c2sc(N(CCN(C)C)C(=O)c3c(F)cccc3F)nc2c1	-0.29	i
Cc1cc(C)c(NC(=S)N(CCCN2CCOCC2)Cc2cccnc2)c(C)c1	-2.4	i

# Random excerpt: four entries already listed.
Structure	KCNQ2 block baseline	KCNQ2 block
CC(=O)c1cccc(NC(=O)C(=O)c2cn(CC(=O)N3CCCCC3)c3ccccc23)c1	-2.3	i
C/C(=N\NC(=O)COc1ccc(C(C)(C)C)cc1)c1ccc2c(c1)OCCO2	-2	i
O=[N+]([O-])c1ccccc1OCCCCN1CCCCC1	1.4	i
O=C(CCSc1ccccc1)NCCSc1ccccn1	-0.33	i

# Next part
Structure	KCNQ2 block baseline	KCNQ2 block
Cc1ccc(NNC(=O)C(=O)N2CCCCC2)cc1	1.2	i
COc1cc(C(=O)NNC(=S)NC(=O)c2ccc3c(c2)OCO3)cc(OC)c1OC	0.21	i
C/C(=N\n1cnnc1)c1ccccc1	-1.9	i
CCOc1ncccc1C(=O)NCC1COc2ccccc2O1 (stereo unspecified)	-0.48	i
CC(C)CNS(=O)(=O)c1cc(C(=O)N2CCOCC2)c(Cl)cc1Cl	-0.63	i
CCOc1cc(/C=N/NC(=O)CSc2nncn2C)ccc1OCC(N)=O	0.21	i
COc1ccc(NC(=O)c2ccc3c(c2)OCO3)cc1	-0.54	i
CCC(C)[C@H](NC(=O)N1CC(=O)Nc2ccccc21)C(=O)NC(C)CCc1ccccc1 (stereo partly specified)	-0.86	i
COc1ccc2c(Cl)c(C(=O)N/N=C/c3ccncc3)sc2c1	-1.4	i
C=CCN(CC=C)C(=S)Nc1ccc2nsnc2c1	1.3	i
CN(C(=O)c1cccc(N2C(=O)C3C4C=CC(C4)C3C2=O)c1)C1CCCCC1 (stereo unspecified)	0.86	i
Cc1cc(C)cc(NC(=O)CCCCCN2C(=O)[C@@H]3Cc4ccccc4CN3C2=O)c1	-0.62	i
Cc1oc(-c2ccccc2F)nc1CS(=O)CC(=O)NC1CCCC1 (stereo unspecified)	-0.53	i
NC(=O)c1cnn2c(-c3ccc(Cl)cc3Cl)ccnc12	0.32	i
CC(=O)Nc1ccc(NC(=O)CN2C(=O)COc3ccc(S(=O)(=O)N4CCCCC4)cc32)cc1	-0.35	i
O=C(c1cc(COc2ccc(F)c(F)c2)on1)N1CCSCC1	0.29	i
Cc1ccc(-c2c(C)sc(=NC(=O)c3ccco3)n2C)cc1	0.77	i
CCc1nccn1CCC(=O)NC1CC(C)(C)Cc2c1cnn2-c1ccc(OC)cc1 (stereo unspecified)	-1.6	i
COc1cnn(-c2ccc(C)cc2)c(=O)c1Cl	-0.44	i
Cc1cc(C(=O)OC(C(=O)Nc2cccc(C(F)(F)F)c2)c2ccccc2)c(C)o1 (stereo unspecified)	-0.09*	-5.8*
COC(=O)c1ccc(OCCOc2ccccc2C)cc1	0.73	i
O=C1N(Cc2cccnc2)C[C@@H]2C[C@@H](c3cccc(OC4CCCC4)c3)N3CCC[C@@]123	2.5	i
CCC1CCCCN1C(=O)c1c(-c2ccccc2)noc1C (stereo unspecified)	0.71	i
CC(C)(C)n1nnnc1C(c1cccnc1)N1CCN(C2CCCCC2)CC1 (stereo unspecified)	0.03	i
O=C(NCCc1ccccc1)C(=O)NCCC1CCCCN1S(=O)(=O)c1ccccc1 (stereo unspecified)	0.9	i
COCCn1c(C)cc(/C=N/NC(=O)c2cccnc2)c1C	0.66	i
CCCCN1C(=O)C2C(c3ccc(OC)cc3O)NC(CC(C)C)(C(=O)O)C2C1=O (stereo unspecified)	0.75	i

# This is a subset, so the mix of outcomes need not match the whole.
